RN4220 kill = S. aureus RN4220 growth inhibition; OD600, 16 h; actives 0.33% (n = 330,000); inhibition, % (test concentration not listed);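 active = z-score of -3 or lower and OD600 up to 0.18 on both plates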;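 note: plate controls were untreated cells for no effect and reference antibiotic for full effect; stock transfer was 100 nL into about 80 µL; one replicate is shown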
Mtb hypoxia rep = Mtb hypoxia fluorescent reporter inhibition | M. tuberculosis hypoxia-regulated fluorescent reporter, fluorescence | fluorescence inhibition, % (no concentration beside the values) | actives 0.1% (n = 300,000) | AID 1159583;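 active = 35 to 45% if threefold the growth effect, above 45% if 1.5-fold the growth effect; inactive = the rest, general growth blockers included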;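 note: wells of about 50 µL received 100 nL stock; 0% = vehicle wells and 100% = reference inhibitor wells; whole bacteria with a GFP reporter of the hypoxia response; strong numbers were not always called active; many hits fall short of the cut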
PrP UTR inh = inhibition of PrP 5' UTR reporter expression; cell-based PrP 5' UTR mRNA reporter, plate reader; inhibition, % (no concentration beside the values); actives 0.35% (n = 340,000);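 active = every replicate at 50% or more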;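 note: 0 = median of the neutral control wells; tested in H4 reporter cells; numbers are from one replicate; inactives centre near -14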
Sa ugtP lethal = kills S. aureus RN4220 lacking UgtP; S. aureus RN4220 ugtP deletion, OD600 growth, 16 h; some inactives read as strong as hits; growth inhibition, % (no concentration beside the values); actives 0.54% (n = 330,000); AID 1259309;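 active = z-score under -3 and OD600 up to 0.15 on both plates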;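 note: plate controls were untreated wells for no effect and antibiotic for full effect; wells of about 80 µL received 100 nL stock; the first replicate is given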
BJeLR viability = BJeLR cell viability loss; BJeLR (HRASV12) viability, CellTiter-Glo ATP luminescence, 48 h; reference of the scale not given here; inhibition, % (concentration not given with the values); actives 0.17% (n = 300,000);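 active = replicate mean above 50%; inconclusive = above 50% but judged a plate artefact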;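 note: 50 nL library stock added to about 25 µL; numbers are from one replicate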
Bead autofluor = counter-screen for toxin protease inhibitors: compound fluorescence | compound autofluorescence counterscreen, microsphere flow cytometry; active compounds read high | fluorescence intensity (no concentration beside the values) | actives 3.1% (n = 360,000) | AID 624483;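 active = at least 3 SD above the mean of all compounds, about 16000 in these data; inconclusive = too few beads counted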;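 note: 100 nL of 1 mM stock went into each well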
Mtb hypoxia rep growth = second read-out of Mtb hypoxia rep, no call of its own (marks repeat the call); growth inhibition, %; measured here: M. tuberculosis growth (absorbance);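 0% = vehicle and 100% = reference antibiotic; read after six days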
Active calls of the source: *; ? = inconclusive; . = not tested or not shown; & = joins results of further samples.

SMILES	RN4220 kill	Mtb hypoxia rep	Mtb hypoxia rep growth	PrP UTR inh	Sa ugtP lethal	BJeLR viability	Bead autofluor
O=C(NN=C/C=C\c1ccc([N+](=O)[O-])cc1)c1cccnc1	0.4	7	-1	.	3	.	.
CCCc1ccc2oc(C(=O)NCCc3nc(C(=O)OCC)cs3)c(C)c2c1	-2.5	3	-4	-36	-2	-6	5671
COC(=O)c1[nH]c2ccc(Cl)cc2c1NC(=O)CCN1CCN(C2CCCCC2)CC1	-2.1	6	12	2	-7	-11	4276
CCOC(=O)c1sc(NN=Cc2cccc(C)c2)nc1C	-2.6	14	5	.	1	.	.
COc1ccc(F)cc1S(=O)(=O)Nc1ccc2c(c1)OCCO2	3.8	.	.	-18	-13	0	6190
CCCCc1cc(=O)oc2cc(OCc3cc(OC)c(OC)c(OC)c3)c(Cl)cc12	7.8	.	.	-20	6	2	2288
CN(C)S(=O)(=O)c1ccc(C(=O)Nc2ccc(CCC(=O)N3CCCC3)cc2)cc1	-3.3	-4	0	9	7	3	.
Cc1cc(C)nc(SCc2cc(=O)c(OC(=O)c3cccc([N+](=O)[O-])c3)co2)n1	.	.	.	-6	.	-4	7578
COc1cccc(NC(=O)CN(C)C(=O)Cc2ccc3c(c2)OCCO3)c1	3.4	2	2	-12	2	.	5464
CC(=O)c1c(Nc2cccc(F)c2)oc(C)cc1=O	-0.2	3	3	-15	4	2	5086
COc1ccc(CCC(C)N2CCOCC2)cc1 (configuration not stated)	3.9	6	18	-7	5	2	4012
C=CCn1c(CNS(=O)(=O)c2ccc(F)cc2)n[nH]c1=S	-2.0	-1	2	-17	-2	2	5600
CCOC(=O)C1=C(COC(=O)CCOc2cc(C)ccc2C)NC(=O)NC1C (configuration not stated)	8.7	5	3	-24	8	.	8750
NC(=O)c1ccc(NC(=O)CCC(=O)c2cccs2)cc1	1.4	-1	12	-11	4	-2	3410
O=C(Cc1cccc(NC(=O)C2CCN(C(=O)C3CCCCC3)CC2)c1)Nc1cccc(C(=O)N2CCOCC2)c1	-2.1	-6	-3	-3	0	.	3654
CC(CN1CCCCC1)OC(=O)C(C)(c1ccccc1)c1ccccc1 (configuration not stated)	-6.7	-6	8	-5	-7	-8	4056
CC(=O)c1ccc(N2CCN(C(=O)Nc3ccc(F)cc3F)CC2)cc1	2.3	14	14	-59	8	-16	4693
O=C(O)CSc1nc2ccc(C(=O)c3ccccc3)cc2[nH]1	3.6	10	5	-15	8	7	2878
COc1ccc(Br)cc1CN(C)CC(=O)NCCc1ccccc1	2.8	12	11	-9	6	-5	3318
COc1ccc(S(=O)(=O)N(C)CC(=O)NCc2ccco2)cc1Cl	1.3	-3	0	-11	3	-4	?
Cc1cccc(C)c1OCC(=O)OCC(=O)c1ccc2c(c1)NC(=O)CO2	-2.6	4	-5	-21	5	9	4230
COc1cccc(C(=O)Nc2cccnc2)c1OC	5.0	-11	-4	-5	7	7	4389
COc1ccc(NC2=NCC(C)S2)cc1 (configuration not stated)	1.2	-4	8	-16	-6	-9	2002
COC(=O)[C@@H]1C2CCC(C(=O)Nc3ccccc3)(CC2)[C@@H]1C(=O)OC	0.1	.	.	-14	-2	-1	4944
O=C(CCCNS(=O)(=O)c1cccc2nsnc12)NCc1ccc(F)cc1	4.8	.	.	-13	5	14	2731
O=C(O)CSc1ccc2ccccc2n1	3.4	.	.	-6	-2	3	5776
O=C(COC(=O)C1COc2ccccc2O1)Nc1ccc2c(c1)CCC2 (configuration not stated)	-6.6	11	17	-21	-4	3	3187
CC1(C)NC(=O)N(CCCCSc2ccc(Cl)cc2)C1=O	8.7	2	-7	-10	9	8	?
Cc1ccc2c(C)c(C(=O)NCc3ccc(S(N)(=O)=O)cc3)oc2c1C	4.9	4	-7	-1	0	1	3418
COc1cccc(-n2c(SCC(=O)NCc3ccco3)nnc2-c2c[nH]c3ccccc23)c1	1.3	0	1	-12	-1	-17	5928
CCC(C)Nc1nc(OC)nc(N(C)C#N)n1 (configuration not stated)	0.1	.	.	-4	2	-1	4527
COCCCN1CC(=O)N2Cc3[nH]c4ccccc4c3C[C@H]2C1=O	1.3	-1	14	-20	-1	4	3038
Cc1cc(C)cc(NC(=O)Cn2cnc3c(nnn3Cc3ccc(F)cc3)c2=O)c1	-0.1	4	4	-26	-1	-9	2630
CCOC(=O)C(C(=O)OCC)c1cc(Br)c2noc3c2c1C(=O)c1ccccc1-3	18	-5	3	-8	-7	18	3932
O=C1COc2ccc(C(=O)COC(=O)c3ccc(Cl)cc3[N+](=O)[O-])cc2N1	1.8	6	7	-14	3	-4	5180
CC(=NN=C(N)N)c1cccc([N+](=O)[O-])c1	6.3	15	1	.	11	.	.
O=C(CN1CCN(c2ccc(Cl)cc2)CC1)c1ccccc1	7.0	3	-3	6	2	-3	4282
CCOc1ccccc1CN1CCC(O)CC1	4.6	11	-2	-30	10	-5	7060
COc1cccc(NC(=O)CN(C)C(=O)CCCNC(=O)c2ccc(Cl)cc2)c1	-1.2	8	0	-37	7	.	?
O=C1NC2(CCCCCC2)C(=O)N1Cc1c(F)cccc1Cl	2.8	-4	5	-5	-4	1	3711
CCc1ccc2[nH]c3nc(SCCN4CCOCC4)nnc3c2c1	3.1	15	10	-2	-7	-14	4122
O=C1N=C(N2CCC(Cc3ccccc3)CC2)S/C1=C/c1cn[nH]c1-c1ccccc1	6.8	1	10	-16	18	-9	?
Cc1cccc(NC(=O)CCCSc2nc3ccccc3[nH]2)c1	5.8	1	5	-11	13	-3	2837
Nc1ccccc1N1CCN(C(=O)c2ccccc2)CC1	26	-4	-4	-10	17	-9	2789
CCN1C(=O)C(=O)N(CC(=O)N2CCN(c3ccccc3)CC2)C1=O	1.6	-4	5	3	1	-2	5057
Cc1cc(C(=O)Cn2nc(C(=O)O)c3ccccc3c2=O)c(C)n1CCc1ccc(Cl)cc1	-2.7	19	8	-11	0	-11	4893
CN(CC(=O)Nc1ccc(F)cc1)C(=O)Cn1cnc2ccc([N+](=O)[O-])cc2c1=O	3.3	0	6	-12	5	.	2976
CCCSc1nc2c(c(=O)n1-c1ccc(OCC)cc1)SCC2	1.5	6	0	-3	1	2	9301
COc1ccc(CCNC(=O)CCCN2C(=O)c3ccccc3C2=O)cc1OC	4.7	6	8	-21	7	5	12573
CC(=O)Nc1ccc(NC(=O)CSc2nnc(CNc3ccc(F)cc3)n2CC2CCCO2)cc1 (configuration not stated)	-0.6	0	17	-23	5	2	4075
O=C(CSc1ncn[nH]1)c1ccc2c(c1)OCO2	3.9	4	9	.	-3	2	11949
COc1ccc(OC)c(NS(=O)(=O)c2ccc(N3CCCC3=O)cc2)c1	1.6	.	.	60*	0	48	4966
Nc1ncnc2c1ncn2[C@@H]1O[C@H](CNC(=O)[C@@H]2CCC(=O)N2)[C@@H](O)[C@H]1O	2.3	-9	-7	-26	4	.	3428
Cc1nc(SCC(=O)NC2CCCC2)[nH]c(=O)c1Cc1ccccc1	7.0	2	0	3	1	2	8055
O=C1C=C(N2CCCCC2)C2(CCCCC2)O1	1.0	1	3	-14	4	3	2477
CC(CCc1ccccc1)NC(=O)COC(=O)C1CCC(C(C)(C)C)CC1 (configuration not stated)	-4.0	1	9	-12	-7	3	2492
Clc1ccccc1Nc1nc(-c2ccncc2)nc2ccccc12	2.0	-1	10	0	0	10	3498
COC(=O)C1CC(c2ccccc2)C(C)C1(C)C (configuration not stated)	-2.5&1.4	-1&4	-2&8	.	-5&2	.	.
CCn1nnnc1SCC(=O)N1CCN(Cc2ccc3c(c2)OCCO3)CC1	0.1	-12	3	-8	0	.	9283
CCOC(=O)c1c(NC(=O)Cn2nc(C(F)(F)F)cc2C)sc2c1CCC2	13	5	0	3	2	-3	2487

One compound at a time (already shown):
Cc1cccc(C)c1OCC(=O)OCC(=O)c1ccc2c(c1)NC(=O)CO2 as listed: RN4220 kill: -2.6; Mtb hypoxia rep: 4; Mtb hypoxia rep growth: -5; PrP UTR inh: -21; Sa ugtP lethal: 5; BJeLR viability: 9; Bead autofluor: 4230
Nc1ncnc2c1ncn2[C@@H]1O[C@H](CNC(=O)[C@@H]2CCC(=O)N2)[C@@H](O)[C@H]1O as listed: RN4220 kill: 2.3; Mtb hypoxia rep: -9; Mtb hypoxia rep growth: -7; PrP UTR inh: -26; Sa ugtP lethal: 4; BJeLR viability: .; Bead autofluor: 3428

(next part)
SMILES	RN4220 kill	Mtb hypoxia rep	Mtb hypoxia rep growth	PrP UTR inh	Sa ugtP lethal	BJeLR viability	Bead autofluor
COc1ccc2[nH]c(=O)c(CN(C(=O)C3CCCO3)c3ccc(C)c(C)c3)cc2c1 (configuration not stated)	1.9	-11	-11	-9	14	-7	4529
Nc1c(C(=O)N/N=C/c2ccccc2)cnn1-c1ccccc1	.	.	.	-21	.	-2	4442
Cc1nc(SCC(=O)NCc2ccc3c(c2)OCO3)nc(C)c1C	4.7	23*	54*	-11	10	.	3883
Cc1ccc(CN2CCN(c3ncccn3)CC2)o1	0.8	10	0	-8	13	6	7901
CCCCn1c(CN2CCN(CCO)CC2)nc2ccccc21	3.5	1	9	-14	0	8	4066
NS(=O)(=O)c1ccc(CCNC(=O)C2CCCN2S(=O)(=O)c2cccc3nsnc23)cc1 (configuration not stated)	-4.1	-10	6	13	-7	-2	5587
O=S(=O)(Nc1ccccc1F)c1ccc2nsnc2c1	8.0	5	7	1	-4	3	10528
CCN(CC)C1=CC(=[N+]2CCCC2)CC(C)(C)C1	2.6	9	0	-9	3	11	7059
CC(C)c1nnc(NC(=O)CCC(=O)N2CCN(c3ccc(Cl)cc3)CC2)s1	-0.2	18	4	14	5	-13	5969
CCOc1ccc(N(CC(=O)Nc2ccccc2C(=O)NCc2ccco2)S(C)(=O)=O)cc1	6.4	14	11	-11	2	1	11200
COc1cc(-c2cc(C(=O)NCCc3ccc(S(N)(=O)=O)cc3)c3ccccc3n2)cc(OC)c1OC	4.8	-9	-15	-7	3	4	4189
Cc1ccc(-n2c(C)cc(C(=S)N3CCOCC3)c2C)cc1C	4.9	-2	10	-4	7	1	6676
Cc1nn(-c2ccccc2)c(N2CCCC2)c1C=NO	2.2	0	11	.	3	.	.
O=C(Nc1cc(S(=O)(=O)N2CCOCC2)ccc1N1CCOCC1)c1cc(=O)[nH]c2ccccc12	7.0	-2	6	-20	0	2	4245
CCCNC1=C(C)C(=O)CC1	8.9	13	4	-27	-1	-3	3281
O=C(/C=C/c1ccc(F)cc1)NCCCN1CCN(CCCNC(=O)/C=C/c2ccc(F)cc2)CC1	4.6	16	6	-6	3	2	2298
CC/C(=N\NC(=O)c1ccc(-c2ccccc2)cc1)C12CC3CC(CC(C3)C1)C2	.	.	.	-14	.	-1	4544
COc1ccccc1CNC(=O)CCC(=O)Nc1nnc(C)s1	7.5	.	.	-7	6	0	4430
C[N+]1(CC#CC(O)(c2ccccc2)c2ccccc2)CCCC1	4.3	6	5	-25	2	-10	2066
C/C(CC(=O)NCc1ccccc1Cl)=N/NC(=O)c1ccccn1	.	.	.	-13	.	-4	3786
CCN(CC)C(=O)CSc1nc2c(sc(=S)n2-c2ccc(C)cc2C)c(=O)[nH]1	4.9	2	-2	-19	7	1	3785
Cc1ccc(-c2nnc(SCC(=O)N3CCCC3)o2)cc1	17	18	7	-38	15	4	3234
CCOC(=O)c1ccc(N2C(=O)CC(N3CCN(C(=O)c4ccco4)CC3)C2=O)cc1 (configuration not stated)	-0.5	.	.	-10	1	9	4919
Cc1nc(SCC(=O)NCC(F)(F)F)c2c(-c3cccs3)csc2n1	2.9	10	6	-30	-2	20	2024
COc1ccc(CCNCc2ccccc2N2CCCC2)cc1	0.5	-19	7	-31	0	-10	3662
Cc1ccc2c(ccc(=S)n2C)c1	9.6	16	5	11	-1	1	2577
CCN(CC)CCNc1nc2c(c(=O)n(C)c(=O)n2C)n1C/C=C(/C)Cl	-2.7	9	9	-11	0	1	4180
O=C(CN1C(=O)S/C(=C\c2ccccc2)C1=O)NNC(=O)c1ccccc1O	3.9	7	-9	-11	2	-4	2499
O=C(CN1c2cccc3cccc(c23)S1(=O)=O)Nc1ccc(F)c(F)c1F	3.1	7	10	-7	-1	.	4093
Cc1ccoc1C(=O)N1CCN(C(=O)c2occc2C)CC1	-0.3	0	15	-27	1	-11	5676

Screening data deposited in PubChem BioAssay by several laboratories.
